Screening results as filed in PubChem.
TRPML1 blocker: human mucolipin-1 channel inhibition | Q9GZU1 | TRPML1-inducible cells, Ca2+ dye fluorescence, FDSS; stronger effect = lower value; inhibition of EC80 agonist-evoked calcium signal | activity change, negative = inhibition, % (no concentration beside the values) | 390,000 compounds, 0.02% hits; in the data active means activity change below about -50%; inconclusive means about -30% to -50%; inactive means above about -30%;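 note: stimulus is agonist 54-4 at its EC80 concentration; % is set by controls: 0 for no effect and ±100 for the full control effect; compound concentration not given in the record; the text of the record puts the active cut at -80%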
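Calcium fluorescence in TRPML1-DL cells induced overnight with Tet: a 110 s read after compound pin addition, then a 110 s antagonist read after challenge with 54-4 at 4 uM final (EC80).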
ClpP mod: qHTS Assay for Activators of ClpP; ATP-dependent Clp protease proteolytic subunit (Bacillus subtilis (strain 168)), P80244; purified B. subtilis ClpP, FRET peptide cleavage, 20 min; Potency, µM (titrated, usually from 57.5 µM), for the others: at the highest dose activity change, negative = active; 340,000 compounds, 1.9% hits; AID 651965, 2013; active = well fitted falling curve with a large enough effect; inconclusive = small, poorly fitted or top-dose-only effect; inactive = no such curve, though single readings can be large or run the other way; note: potency is the fitted concentration of half-maximal effect; the source files actives as falling curves though it sought activators and does not explain the sign; nearly all actives have a fitted effect of over 65% in size; many hits overshoot -100%
Target sequence (P80244 whole entry, looked up): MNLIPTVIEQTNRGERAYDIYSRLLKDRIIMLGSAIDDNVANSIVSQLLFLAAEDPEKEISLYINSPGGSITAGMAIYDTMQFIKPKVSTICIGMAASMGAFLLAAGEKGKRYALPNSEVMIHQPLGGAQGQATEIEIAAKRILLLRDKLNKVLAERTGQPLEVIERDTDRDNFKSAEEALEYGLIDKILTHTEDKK
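Purified B. subtilis ClpP, 10 microg/mL final in Tris/HCl pH8 with KCl, BSA, glycerol and Tween-20, cleaved an Abz/nitrotyrosine-quenched decapeptide. Fluorescence (ex 320, em 430) was read at 0 and 20 min at room temperature. Delta was normalized to 5.8 microM ADEP and DMSO/no-enzyme controls.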
Menin-MLL FL inh: inhibitors of human menin-MLL interaction, wild-type MLL peptide. Fluorescence polarization, fluorescein-MLL peptide displacement from menin. FP activity change, % at 61.4 µM. 290,000 tested, under 10 active. AID 1766; inconclusive = falling polarisation curve, or a change in total fluorescence; inactive = total fluorescence flat and polarisation flat or rising; no compound was filed as active; the % refers to the polarisation; negative = inhibition;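 note: % of control where 0% means no effect; inhibitors lower the polarisation; unlabelled MLL peptide was the positive control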
gsp antag: antagonizes gsp, the McCune-Albright syndrome mutation; gsp-mutant cells, cAMP HTRF, 30 min; control for the full effect not named in the record; Potency, µM (doses to about 76.9 µM), inactives show at the highest dose activity change, negative = inhibition, usual class: inhibitors; 340,000 compounds, 0.4% hits; AID 624288; active = falling curve of any shape with a large fitted effect; inconclusive = falling curve, mostly with a smaller effect; inactive = flat or rising curve; cell line not stated here;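 note: intracellular cAMP measured with PDE inhibitor Ro 20-1724 present during compound exposure; potency is the fitted concentration of half-maximal effect; % is set by controls: 0 for no effect and ±100 for the full control effect; nearly all actives have a fitted effect of over 65% in size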
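Cells in G418 medium, seeded 16-24 h, 37C; buffer exchange to DPBS + 1 mM CaCl2, 0.5 mM MgCl2, 0.05% BSA; cpds in DMSO + […] (300 uM stock), 30 min 37C; HTRF cAMP detection.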
Sfp inh: inhibitors of Bacillus subtilis Sfp phosphopantetheinyl transferase; Biochemical Sfp PPTase activity, qHTS; 310,000 compounds, 3.5% hits; Q9F4F7; AID 1490; Potency, µM, for the others: max response, negative = inhibition, usual class: inhibitors; active = well fitted inhibition curve with a large enough effect; inconclusive = small, poorly fitted or top-dose-only effect, or another doubt; inactive = no such curve, though single readings can be large or run the other way;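 note: the enzyme is Sfp with the accession as filed and its product quenches rhodamine fluorescence; potency is the fitted concentration of half-maximal effect; 0% = enzyme reaction without inhibitor and -100% = no enzyme wells; top concentration of the series not given in the record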
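Reaction rates are the 30-min fluorescence difference (ex 525, em 598 nm) in wells containing 15 nM Sfp, 5 uM rhodamine-CoA and 12.5 uM BHQ-2-YbbR at pH 7.6 with 10 mM MgCl2.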
gsp agonist: agonists of gsp mutant (McCune-Albright syndrome); gsp mutant cells, cAMP HTRF, 30 min; control for the full effect not named in the record; Potency, µM (highest dose often 76.9 µM), inactives show top-dose activation (cAMP increase), actives largely listed as activators; 340,000 compounds, 0.13% hits; AID 624287; active = well fitted activation curve with a large enough effect; inconclusive = small, poorly fitted or top-dose-only effect, or another doubt; inactive = no such curve, though single readings can be large or run the other way; cell line not stated here;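 note: phosphodiesterase inhibitor Ro 20-1724 added with compounds to block cAMP breakdown; potency is the fitted concentration of half-maximal effect; nearly all actives have a fitted effect of over 60% in size; about a fifth of the inactives were tested at one dose only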
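Cells in DMEM/10% FBS with G418 were pretreated with compounds in DMSO plus […] (300 uM stock) for 30 min at 37C. cAMP was measured by HTRF (cAMP-d2 plus anti-cAMP antibody-K) after 30 min at room temperature.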
TRPV1 PAM: human TRPV1 potentiation | Q8NER1 | TRPV1-expressing cells, Fluo-8 calcium influx, capsaicin EC20 potentiation; host cell line not named in the record; control for the full effect not named in the record | potentiation, % at 8.33 µM | 320,000 compounds, 0.02% hits; active means potentiation above 80%; inconclusive means 30% to 80%; inactive means below 30%; note: 0% is about no effect
Target sequence (Q8NER1 whole entry, looked up): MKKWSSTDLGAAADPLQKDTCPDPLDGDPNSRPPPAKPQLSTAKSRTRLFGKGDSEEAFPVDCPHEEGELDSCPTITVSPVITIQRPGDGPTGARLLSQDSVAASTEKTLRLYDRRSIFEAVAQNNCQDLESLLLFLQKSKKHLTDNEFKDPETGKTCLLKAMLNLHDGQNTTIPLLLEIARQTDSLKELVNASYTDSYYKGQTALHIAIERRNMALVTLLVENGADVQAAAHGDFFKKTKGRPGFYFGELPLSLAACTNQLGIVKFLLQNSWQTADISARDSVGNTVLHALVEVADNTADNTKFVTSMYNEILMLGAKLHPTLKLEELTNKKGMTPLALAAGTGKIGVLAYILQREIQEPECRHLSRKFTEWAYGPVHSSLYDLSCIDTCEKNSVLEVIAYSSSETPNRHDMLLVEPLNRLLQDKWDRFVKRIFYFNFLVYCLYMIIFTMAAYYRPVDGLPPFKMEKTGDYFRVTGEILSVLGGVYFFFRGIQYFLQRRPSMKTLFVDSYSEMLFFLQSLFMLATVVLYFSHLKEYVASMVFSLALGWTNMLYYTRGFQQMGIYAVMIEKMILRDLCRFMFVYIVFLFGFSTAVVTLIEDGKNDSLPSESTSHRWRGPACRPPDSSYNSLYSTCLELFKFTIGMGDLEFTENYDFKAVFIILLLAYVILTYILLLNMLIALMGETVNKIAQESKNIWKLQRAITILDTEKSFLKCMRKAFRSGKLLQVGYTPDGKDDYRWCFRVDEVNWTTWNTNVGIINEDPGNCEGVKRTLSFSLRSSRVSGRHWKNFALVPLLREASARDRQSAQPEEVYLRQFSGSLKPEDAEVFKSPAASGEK
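Fluo-8 calcium influx in TRPV1-expressing cells, kinetic read (ex 480/em 520 nm). Compound added and read 3 min for agonist activity, followed by capsaicin at EC20 final and 2 min further read for enhancement.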
* = called active by the depositor; ? = inconclusive; nt = not tested or not shown; [ ] = another dose, or the depositor's remark. No enrichment for hits; 4.9% or so of the library scored in one or more.

SMILES	TRPML1 blocker	ClpP mod	Menin-MLL FL inh	gsp antag	Sfp inh	gsp agonist	TRPV1 PAM
CCOC(=O)N/N=C/c1c(C)nn(-c2ccccc2Cl)c1Cl	8	-2.4%	-0.1	5%	9%	-3%	0
O=C(CN(c1ccc(F)cc1)S(=O)(=O)c1ccc2c(c1)OCCO2)Nc1ccc2c(c1)OCO2	-6	0.1%	5.6	-5%	11%	-3%	-14
O=C(NCCO)C(O)C(O)C(=O)NCCO (stereo not given)	-23	nt	?	5%	11%	-3%[15.4 µM]	0
O=C(NCCCn1ccnc1)c1cc2nc(-c3ccc(Br)cc3)cc(C(F)(F)F)n2n1	-7	-12%	1.1	-13%	5%	11%	-31
O=C(NCc1ccccc1)C(c1ccccn1)N(C(=O)c1csnn1)c1ccccc1F (stereo not given)	-5	nt	0.2	8%	13%	19%	-1
COc1ccc(N2CC(C(=O)N[C@H](C(=O)NC3CCCC3)C(C)C)CC2=O)cc1 (stereo not given in full)	3	0.3%	nt	13%	7%	-45%[inhibitor]	4
CCNc1c(NC(=O)c2cccs2)c(=O)oc2ccccc12	-8	nt	-6.4	8%	5%	-3%[15.4 µM]	0
Cc1c(N2C(=O)/C(=C/c3cccc4ccccc34)SC2=S)c(=O)n(-c2ccccc2)n1C	-1	-2.2%	nt	-15%	nt	0%	nt
COc1ccc(N(C(C)C(=O)Nc2ccc(S(=O)(=O)N3CCCCC3)cc2)S(C)(=O)=O)cc1 (stereo not given)	-9	nt	nt	-15%	16%	-7%	10
CSc1nc(-c2ccc(Cl)cc2)nc(N)c1C#N	16	nt	2.3	27%	-27%	0%[15.4 µM]	6
Cc1cc(C)cc(NC(=S)NCCN(C2CCCCC2)C2CCCC2)c1	22	-3.1%	-0.7	10%	12%	-1%	8
C=CCOC(=O)C(C(=O)Cc1ccccc1)c1ccccc1 (stereo not given)	12	nt	nt	8%	nt	-8%	nt
CCOC(=O)C1C(=O)CC(C)(O)C(C(=O)OCC)C1c1ccco1 (stereo not given)	4	-2.3%	2.1	13%	10%	2%	3
O=C1NCCN/C1=C\C(=O)c1ccc(Cl)cc1	12	3.9%	-0.8	-8%	3%	4%[15.4 µM]	11
CCCn1cnc2sc(CC)cc2c1=O	-1	-2.0%	0.3	-1%	14%	5%	1
COC(=O)c1[nH]c(C)c(/C(O)=C2\C(=O)C(=O)N(CCN(C)C)C2c2cccc(OC)c2OC)c1C (stereo not given)	14	-0.5%	-1.3	3%	14%	?	0
CCOc1ccc(C2C(C(=O)c3ccco3)=C(O)C(=O)N2CCN(C)C)cc1 (stereo not given)	nt	nt	0.0	nt	-1%	nt	5
Cc1ccc(Oc2coc3cc(O)ccc3c2=O)cc1	15	3.4%	10	-10%	0%	?	0
O=C1CCCN1CCCNC(=S)Nc1ccc(F)cc1	-29	nt	2.2	10%	?	-22%[15.4 µM]	11
CC(=O)Nc1ccc2c(c1)N(S(=O)(=O)c1cccs1)CCC2	0	-0.5%	nt	-8%	nt	-9%	-3
C(=N\c1nc2ccccc2[nH]1)/c1cccs1	9	-0.7%	0.2	9%	-1%	-34%[inhibitor]	9
C#CCOC(=O)Nc1cnccc1C(F)(F)F	-6	nt	1.9	0%	18%	11%	5
Cc1c(NS(=O)(=O)c2ccc3c(c2)NC(=O)CC(=O)N3)cccc1[N+](=O)[O-]	9	1.0%	nt	15%	16%	33%	2
COc1cc(=O)oc(CCC(C)O)c1C (stereo not given)	-1	-1.5%	nt	4%	nt	nt	nt
COc1ccc(/C(C)=N/NC(=O)CN(c2ccc(OC)cc2)S(=O)(=O)c2ccccc2)cc1	-18	5.0%	4.6	8%	7%	12%	0
COC(=O)c1cnc(Nc2ccc(Cl)cc2)c([N+](=O)[O-])c1	31	nt	0.2	5%	17%	9%[15.4 µM]	nt
CCc1ccccc1N1C[C@@]23C=C[C@@H](O2)C(C(=O)OCC(C)C)[C@H]3C1=O (stereo not given in full)	3	-0.6%	-2.0	-1%	-5%	-14%	11
Nc1c(C(=O)N2CCCCC2)sc2nc3c(cc12)CCCC3	-15	nt	3.6	-3%	5%	34%	-6
COc1ccc(C2CC(c3ccc(C)o3)=NN2C(C)=O)cc1 (stereo not given)	11	-22%	2.3	10%	-3%	-11%	0
COc1ccc(-n2nc(C)c3c(=O)c4c([nH]c32)CCCC4)cc1	nt	-0.7%	-0.8	-14%	12%	19%	?
CCC(CC)C(=O)N1CCN(c2ccccc2)CC1	2	nt	-2.8	12%	16%	-3%[15.4 µM]	8
Cc1cccc(CCNC(=O)CN(C)S(=O)(=O)c2cnc[nH]2)c1	-19	5.2%	-1.6	0%	-8%	24%	-6
COc1ccc(-c2nn(CC(=O)Nc3ccc(Cl)c(Cl)c3)c(=O)c3ccccc23)cc1	24	?	6.2	4%	11%	?	?
CC1CC(CC(=O)NC(=S)Nc2ccccc2Cl)C(=O)O1 (stereo not given)	-12	1.5%	2.3	2%	15%	-18%	18
Cc1c(N=C/C=C/c2ccccc2)c(=O)n(-c2ccccc2)n1C	-17	-1.4%	4.3	3%	-3%	-38%	1
Cc1cccc(C)c1N1C(=O)CN(Cc2ccccc2)C1=S	nt	0.0%	2.9	-8%	19%	15%	-21
Cc1ccc(NC(=O)CSc2nnc(Cc3csc(C)n3)o2)cc1	-6	-3.2%	nt	1%	nt	?	-4
N/C(=N\OC(=O)CCCc1ccccc1)c1cccnc1	6	0.8%	2.4	17%	17%	-3%	17
CCOC(=O)C1CCN(S(=O)(=O)c2ccc(OC)c(C(=O)N3CCCCCC3)c2)CC1	8	nt	2.8	0%	9%	-49%	3
CC(=O)Nc1ccc(S(=O)(=O)NC(C)c2ccncc2)cc1 (stereo not given)	-10	0.8%	nt	-15%	nt	-3%	-1
CC(C)CN(C(=O)CSc1nnc(C2CC2)n1-c1ccccc1)C1CCS(=O)(=O)C1 (stereo not given)	14	-1.1%	nt	-4%	nt	0%	-1
Cc1noc(C)c1S(=O)(=O)N(CC(=O)N1CCn2c1nc1ccccc12)c1ccc(C(C)C)cc1	9	0.2%	4.8	2%	9%	-9%	nt
Cc1cc(C)cc(NC(=O)c2sc3nc4n(c(=O)c3c2C)CCC4)c1	16	0.1%	5.6	-10%	-12%	?	12
COCC1CCCN(C(=O)c2cc(COc3ccc(C(C)=O)cc3)on2)C1 (stereo not given)	-15	-2.0%	nt	-9%	nt	5%	nt
O=C(NN=C1CCN(Cc2ccccc2)CC1)c1cccc(S(=O)(=O)Nc2ccccc2Cl)c1	2	-3.1%	5.3	-8%	23%	-26%	?
Cc1ccc2c(c1)N(CC(=O)N1CCCCCC1)C(=O)C(C)O2 (stereo not given)	18	nt	1.0	2%	12%	14%	12
CCCc1cc(C(=O)Nc2sc3c(c2C(=O)OCC)CCCC3)no1	14	-1.9%	4.0	9%	11%	-36%[inhibitor]	17
CN1CCN(C(=O)c2cccc(S(=O)(=O)N3CCCC3)c2)CC1	-3	-2.3%	nt	5%	nt	15%	9
COC(=O)c1cc2c(n(-c3ccccc3)c1=O)CCCC2=O	-7	5.3%	nt	3%	nt	nt	nt
O=C1C=C(Nc2cccc(O)c2)CC(c2ccco2)C1 (stereo not given)	8	-1.3%	-2.7	9%	16%	14%	-4
O=C(CSc1nnc(Cc2ccccc2)o1)Nc1ccccc1	6	0.3%	-4.4	8%	-3%	-6%[15.4 µM]	1
COc1ccc(C(=O)NNc2cc(C)nc(NNC(=O)c3ccc(OC)cc3)n2)cc1	12	nt	-0.7	4%	?	-2%[15.4 µM]	24
O=C(CCc1nnc(CCCc2ccccc2)o1)NCCCC1CCCC1	-9	nt	-3.3	-1%	-5%	-49%[inhibitor]	10
CCn1c(=S)sc2c(=O)n(CC(=O)Nc3cccc(Br)c3)c(C)nc21	15	1.6%	nt	-1%	?	-1%	8
CCC(C)[C@H](N)c1cn([C@@H](Cc2ccc(O)cc2)C(=O)N2CCNCC2)nn1 (stereo not given in full)	1	-1.1%	-9.3	-1%	-3%	nt	1
Cn1c2ccccc2c2cc(C(=O)NNS(=O)(=O)c3ccc(F)cc3)sc21	2	-18%	1.7	?	2%	25%	8
COc1cc(CC(=O)OCC(=O)c2c[nH]c3ccccc23)cc(OC)c1OC	48	-1.1%	nt	-6%	nt	11%	14
O=C(CCNC(=O)Cn1ccc2ccccc2c1=O)NCc1ccccn1	28	?	1.5	8%	11%	-2%	-7
O=C(N/N=C1\CC(c2ccccc2)Oc2ccccc21)c1ccc(O)cc1 (stereo not given)	30	nt	?	?	17%	-50%[inhibitor]	2
COc1ccc(OC)c(NC(=O)CSc2nnc(-c3ccco3)o2)c1	4	45%	0.5	2%	8%	2%	10
CCc1sc(C(=O)Nc2ccc3c(c2)OCO3)cc1C	3	-0.5%	nt	-4%	nt	-9%[15.4 µM]	nt
